# Mtb hypoxia rep – PubChem AID 1159583; M. tuberculosis hypoxia-regulated fluorescent reporter, fluorescence; fluorescence inhibition, % (concentration not given with the values); 300,000 compounds, 0.1% hits;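 active = 35 to 45% if threefold the growth effect, above 45% if 1.5-fold the growth effect; inactive = the rest, general growth blockers included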;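 note: wells of about 50 µL received 100 nL stock; 0% = vehicle wells and 100% = reference inhibitor wells; whole bacteria with a GFP reporter of the hypoxia response; strong numbers were not always called active; many hits fall short of the cut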
# PrP UTR inh – inhibition of PrP 5' UTR reporter expression; AID 488862, 2010; cell-based PrP 5' UTR mRNA reporter, plate reader; inhibition, % (test concentration not listed); 340,000 compounds, 0.35% hits;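 active = every replicate at 50% or more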;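 note: 0 = median of the neutral control wells; tested in H4 reporter cells; numbers are from one replicate; inactives centre near -14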
# ugtP null kill – growth inhibition of ugtP-null S. aureus, primary screen, RN4220 ugtP deletion, OD600. growth inhibition, % (test concentration not listed). 330,000 compounds, 0.54% hits. 16 h; some inactives read as strong as hits;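 active = z-score under -3 and OD600 up to 0.15 on both plates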;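 note: plate controls were untreated wells for no effect and antibiotic for full effect; wells of about 80 µL received 100 nL stock; the first replicate is given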
# Autofluor counter – compound fluorescence in toxin protease inhibitor counterscreen. compound autofluorescence counterscreen, microsphere flow cytometry; active compounds read high. fluorescence intensity (no concentration beside the values). 360,000 compounds, 3.1% hits. AID 624483;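 active = at least 3 SD above the mean of all compounds, about 16000 in these data; inconclusive = too few beads counted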;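 note: 100 nL of 1 mM stock went into each well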
# BJeLR viability – MLPCN primary cell-based screen for lethality selective to Ras in HRASV12 cells; BJeLR (HRASV12) viability, CellTiter-Glo ATP luminescence, 48 h; reference of the scale not given here; inhibition, % (no concentration beside the values); 300,000 compounds, 0.17% hits; AID 1554, 2009;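 active = replicate mean above 50%; inconclusive = above 50% but judged a plate artefact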;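 note: 50 nL library stock added to about 25 µL; numbers are from one replicate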
# RN4220 kill – growth inhibition of S. aureus RN4220, primary screen, OD600 | 16 h | inhibition, % (concentration not given with the values) | 330,000 compounds, 0.33% hits;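 active = z-score of -3 or lower and OD600 up to 0.18 on both plates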;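 note: plate controls were untreated cells for no effect and reference antibiotic for full effect; stock transfer was 100 nL into about 80 µL; one replicate is shown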
# Mtb hypoxia rep growth – further read-out of Mtb hypoxia rep, marked with its call; growth inhibition, %; measured here: M. tuberculosis growth (absorbance);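 0% = vehicle and 100% = reference antibiotic; read after six days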
# The depositor's hits bear a star; ? = inconclusive; . = no result given.
# Fields – Mtb hypoxia rep	Mtb hypoxia rep growth	PrP UTR inh	ugtP null kill	Autofluor counter	BJeLR viability	RN4220 kill
- CC(C)(C)c1cc(NC(=O)c2c(F)cccc2Cl)n(-c2ccccc2)n1
  -5	1	-24	1	5095	-4	-2.7
- CCOC(=O)c1cc[n+](CC(=O)c2ccc(F)cc2)cc1
  6	6	-26	4	2427	6	5.2
- Cc1cc2oc(C(=O)NCCc3ccc(S(N)(=O)=O)cc3)c(C)c2cc1C
  4	9	-2	-13	4036	.	9.6
- Cc1ccc(-n2c(N)c(C(=O)N3CCOCC3)sc2=S)cc1
  12	10	.	7	9973	-11	3.5
- CC(C)C(NC(=O)c1ccccc1)C(=O)N/N=C\c1ccco1 (configuration not stated)
  .	.	-22	.	2143	8	.
- COC(=O)c1ccc(SCC(=O)N2CCC(C)CC2)c([N+](=O)[O-])c1
  -8	2	-20	-2	2359	4	3.3
- CC(=O)Nc1c(Cl)cc2c(c1Cl)Cc1ccccc1-2
  4	12	-9	9	3722	.	14
- COc1cccc2[nH]c(C(=O)NCC3CCCO3)cc12 (configuration not stated)
  -9	-1	-10	1	3562	3	3.0
- Oc1ccc(C=Nn2c(C3CCCCC3)n[nH]c2=S)c(O)c1
  -5	-2	.	-9	.	.	0.2
- COc1ccc(NC(=O)Nc2cccc3c2O[C@@H](CN(C)S(=O)(=O)c2cn(C)cn2)[C@@H](C)CN([C@H](C)CO)C3=O)cc1
  -3	6	-10	-4	3721	.	-17
- C(=NNc1ccccn1)c1ccc2c(c1)OCCO2
  -3	0	.	-2	.	.	6.1
- CCOC(=O)c1c(NC(=O)c2c(Br)cnn2C)c(C#N)nn1-c1ccccc1
  1	6	-15	-8	7495	-1	1.2
- COc1cc2ccccc2cc1C(=O)NC(=S)Nc1ccc(C(=O)O)cc1
  4	1	-9	21	4560	-5	30
- CCCOc1cc(CC(=O)NCc2ccco2)ccc1OC
  6	7	-2	9	6669	1	4.6
- COc1ccccc1N(CCC#N)C(=O)CSc1nc(-c2ccccc2)cn1N
  -1	1	-6	-6	3190	-2	-5.0
- Cc1ccccc1OCC(O)CNC1CCC(NCC(O)COc2ccccc2C)CC1 (configuration not stated)
  .	.	7	.	3339	89*	.
- C=CCNc1nc(Cl)nc(Nc2ccc([N+](=O)[O-])cc2)n1
  -5	1	-14	0	1970	10	7.6
- CCOCC(=O)Nc1cc(C(=O)Nc2cc(C)cc(C)c2)ccc1Cl
  4	5	.	0	.	7	3.3
- CCCCC1C2=C(CC(C)(C)CC2=O)OC2=C1C(=O)CC(C)(C)C2
  2	5	-34	3	2670	3	13
- CC(C)NC(=S)N(CCc1ccncc1)C(C)C
  0	4	-14	10	4057	6	2.2
- CCOc1ccc2oc(C(=O)OCC(=O)NC(=O)NC3CCCC3)c(C)c2c1
  0	1	-29	-2	10287	-9	3.5
- O=C(O)COc1ccccc1O
  -7	5	-29	-3	.	10	-1.7
- COC(=O)c1ccc(COC(=O)c2[nH]c(C)c(C(C)=O)c2C)o1
  .	.	-22	1	5091	8	1.2
- Cn1c(=O)[nH]c(N)c(Br)c1=O
  12	7	-21	-1	3564	.	1.6
- Cn1c(=O)c2sccc2n2c(CCCC(=O)NCc3ccc4c(c3)OCO4)nnc12
  -8	0	-26	-3	4543	.	6.1
- CC(C)c1ccc(C(C(C(=O)c2ccccc2)N2CCOCC2)N2CCOCC2)cc1 (configuration not stated)
  22	8	-34	3	3827	.	3.7
- CCCCC(C(=O)NC(C)(C)C)N(Cc1ccco1)C(=O)c1snc(C(N)=O)c1N (configuration not stated)
  .	.	-12	5	3319	5	2.4
- CCS(=O)(=O)N(CC(=O)Nc1cccc2ccccc12)c1ccc(OC)cc1
  3	0	-11	1	3603	.	2.7
- CC(C)c1c(C(=O)NN=Cc2cccc3ccccc23)nnn1-c1nonc1N
  -2	5	.	-5	.	.	-1.9
- Cc1[nH]c2ccccc2c1CCN(Cc1cccs1)C(=S)NC(C)(C)C
  -2	-6	-9	-2	4222	-2	-0.4
- O=C(COC(=O)/C=C/c1nc2ccccc2s1)Nc1cccc2ccccc12
  -1	-2	-26	2	2294	-22	6.6
- Cc1cccc(-n2c(SCC(=O)O)nc3sc4c(c3c2=O)CCCC4)c1
  9	6	-4	1	4100	2	2.7
- COc1ccc(Br)cc1CNC(=O)C1CCCN(c2nc3ccccc3o2)C1 (configuration not stated)
  3	-1	-12	1	11067	-3	4.7
- O=C(CSc1ccccc1)NN1C(=O)c2ccccc2C1=O
  18	2	-8	0	3058	-9	1.0
- COc1ccc(-c2nc(CS(=O)CC(=O)NCC3CCCO3)c(C)o2)cc1 (configuration not stated)
  8	5	-5	-5	6654	18	-7.9
- COc1ccc(NC(=O)C2CCCN(S(=O)(=O)c3ccc4[nH]c(=O)ccc4c3)C2)cc1OC (configuration not stated)
  1	-4	-14	3	5021	7	-0.4
- COc1ccc(CNC(=O)C2CC(c3ccccc3[N+](=O)[O-])=NO2)cc1 (configuration not stated)
  8	7	-8	-5	3016	-5	3.0
- COCCCNC(=O)Cn1cnc(C(=O)Nc2ccc(C)c(C)c2)n1
  -13	2	-19	2	3966	.	4.9
- O=C(Nc1cccc(F)c1)c1cc(S(=O)(=O)N2CCC(C(=O)O)CC2)ccc1F
  0	3	-7	1	11251	4	4.1
- O=C(Nc1ccccc1C(=O)NC(Cc1ccccc1)C(=O)NC1CCCCC1)c1ccccc1 (configuration not stated)
  4	-1	-17	17	2547	2	6.7
- COC(=O)/C(=C/c1ccco1)NC(=O)c1ccccc1
  3	7	-17	-3	1963	-2	3.5
- Cc1ccc(OCc2cc(C(=O)NCCn3cccn3)no2)cc1C
  1	-2	-9	3	5779	-1	3.2
- COc1cccc(NC(=O)Cc2nc(-c3ccccc3)sc2-c2ccc(C)cc2)c1
  -2	12	-29	-10	2947	-3	-4.0
- COc1cc(/C=N/NC(=O)C2=NNC(=O)C2C)ccc1O (configuration not stated)
  .	.	-65	.	4072	-13	.
- O=C(NCCCNC(=O)c1c(F)cccc1F)c1c(F)cccc1F
  -12	10	-13	4	4243	-3	-0.2
- Cc1ccccc1-n1nc(-c2cccnc2)cc1C(=O)N/N=C/c1ccncc1
  .	.	-24	.	3422	-3	.
- Cc1ccc(Cn2c(CN3CCOCC3)nc3c2c(=O)[nH]c(=O)n3C)cc1
  -9	16	-16	-4	22053*	6	1.0
- Cc1ccc(C(=O)NCC2CCCN2S(=O)(=O)c2cccs2)cc1C (configuration not stated)
  7	6	-14	4	?	7	2.5
- Cc1ccc(OCCCCn2c(CO)nc3ccccc32)cc1
  0	4	0	5	3494	2	8.2
- CCN(CC)C(=O)[C@H]1C[C@H](CC(=O)NCCCOC)C(=O)N2CCc3c([nH]c4cc(CCC(=O)N(C)C)ccc34)[C@]12C
  0	-9	-9	4	3476	.	-1.9
- CCOC(=O)C(=O)Nc1nc(-c2ccccc2)c(CC)s1
  3	8	-6	5	2714	-12	6.1
- O=C(Nc1cccc(Cl)c1)Nc1nc(-c2ccccc2)cs1
  .	.	-41	.	4697	4	.
- CCOC(=O)CSc1nnc(NC(=O)CN2CCN(C=O)CC2)s1
  3	11	-5	4	3854	-3	0.3
- CCOC(=O)c1cnc(Nc2nc3ccccc3o2)nc1C
  -2	3	65*	0	20539*	36	6.2
- Cc1nn(-c2ccc(Cl)cn2)c2c1C(=O)CC(C)(C)C2Br (configuration not stated)
  -1	4	-14	15	3889	.	0.9
- CCn1c(SCCC#N)nnc1-c1ccncc1
  12	6	-27	9	7359	0	2.7
- CCOC(=O)N1CCN(Cc2nc3cc(NC(C)=O)ccc3n2C)CC1
  9	-2	-5	9	3162	5	7.0
- Cc1ccc2sc(NNC(=O)C3=COCCO3)nc2c1C
  -2	9	-2	-1	3284	0	8.0
- COc1cccc(OCCCCN2CCCCC2)c1
  6	2	-29	7	7986	2	1.3
- CCN(Cc1ccccc1)C(=O)COC(=O)c1c(C)nsc1NC
  8	5	-11	2	3896	.	2.0

# Remaining list, next part:
SMILES	Mtb hypoxia rep	Mtb hypoxia rep growth	PrP UTR inh	ugtP null kill	Autofluor counter	BJeLR viability	RN4220 kill
Nc1nonc1C(=O)NN=Cc1ccncc1	7	5	.	6	.	.	2.6
CCOC(=O)c1nnc(-c2ccccc2)nc1Oc1ccccc1Cl	.	.	-5	0	2845	3	0.6
Cc1cccc(C)c1NC(=O)CNC(=O)C1CC(=O)N(Cc2ccccc2)C1 (configuration not stated)	7	5	-12	0	?	-2	-0.9
CC(C)Nc1nc(NC(C)C)nc(Oc2ccc(=O)n(C)n2)n1	3	15	-13	-2	4206	1	1.5
CN(CCC1CCOCC1)C(=O)CC1C(=O)NCCN1Cc1c(F)cccc1Cl (configuration not stated)	2	1	1	-1	5341	-1	-0.3
O=C(Nc1nncs1)c1cc(-c2ccncc2)nc2ccc(Cl)cc12	-1	10	-10	-5	5782	2	1.5
CN(CC(=O)NCc1ccc(F)cc1)S(=O)(=O)c1ccc2c(c1)c(=O)n(C)c(=O)n2C	-8	-16	-3	-6	5428	5	-2.1
O=C(NN=Cc1cccnc1)c1ccccc1O	9	10	.	6	.	.	5.1
CCCc1cc(=O)oc2cc(C)cc(OCC(=O)N3CCC(C(N)=O)CC3)c12	.	.	-18	5	5598	7	2.1

# Quoted from the listing, 16 compounds:
SMILES	Mtb hypoxia rep	Mtb hypoxia rep growth	PrP UTR inh	ugtP null kill	Autofluor counter	BJeLR viability	RN4220 kill
CCOC(=O)C(=O)Nc1nc(-c2ccccc2)c(CC)s1	3	8	-6	5	2714	-12	6.1
O=C(Nc1cccc(Cl)c1)Nc1nc(-c2ccccc2)cs1	.	.	-41	.	4697	4	.
CCOC(=O)CSc1nnc(NC(=O)CN2CCN(C=O)CC2)s1	3	11	-5	4	3854	-3	0.3
CCOC(=O)c1cnc(Nc2nc3ccccc3o2)nc1C	-2	3	65*	0	20539*	36	6.2
Cc1nn(-c2ccc(Cl)cn2)c2c1C(=O)CC(C)(C)C2Br (configuration not stated)	-1	4	-14	15	3889	.	0.9
CCn1c(SCCC#N)nnc1-c1ccncc1	12	6	-27	9	7359	0	2.7
CCOC(=O)N1CCN(Cc2nc3cc(NC(C)=O)ccc3n2C)CC1	9	-2	-5	9	3162	5	7.0
Cc1ccc2sc(NNC(=O)C3=COCCO3)nc2c1C	-2	9	-2	-1	3284	0	8.0
COc1cccc(OCCCCN2CCCCC2)c1	6	2	-29	7	7986	2	1.3
CCN(Cc1ccccc1)C(=O)COC(=O)c1c(C)nsc1NC	8	5	-11	2	3896	.	2.0
Nc1nonc1C(=O)NN=Cc1ccncc1	7	5	.	6	.	.	2.6
CCOC(=O)c1nnc(-c2ccccc2)nc1Oc1ccccc1Cl	.	.	-5	0	2845	3	0.6
Cc1cccc(C)c1NC(=O)CNC(=O)C1CC(=O)N(Cc2ccccc2)C1 (configuration not stated)	7	5	-12	0	?	-2	-0.9
CC(C)Nc1nc(NC(C)C)nc(Oc2ccc(=O)n(C)n2)n1	3	15	-13	-2	4206	1	1.5
CN(CCC1CCOCC1)C(=O)CC1C(=O)NCCN1Cc1c(F)cccc1Cl (configuration not stated)	2	1	1	-1	5341	-1	-0.3
O=C(Nc1nncs1)c1cc(-c2ccncc2)nc2ccc(Cl)cc12	-1	10	-10	-5	5782	2	1.5
